# Screening data (PubChem BioAssay)
# UUG fidelity = alters start codon recognition fidelity in yeast; S. cerevisiae UUG-firefly luciferase reporter, luminescence/redox ratio; activity score, % at 18.7 µM; actives 0.13% (n = 350,000);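 active means replicate mean at a twofold rise or more, about +100% in these data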;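 further: firefly luciferase made from a UUG start codon reports start codon fidelity; reporter light over untreated wells divided by growth signal over untreated wells; some hits fall short of that in this replicate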
# HIV Env fusion = inhibitors of HIV Env-mediated cell fusion. HeLa-JRFL Env/CEM21 cell fusion, luciferase. inhibition, % at 12.3 µM. actives 1.1% (n = 360,000). AID 651610;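 active means mean replicate inhibition score of at least 50 and every replicate individually at or above 50; inconclusive means only one of the two criteria met; inactive means mean below 50 and not all replicates reaching 50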;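 further: 0% = plate neutral controls and 100% = maraviroc near 300 nM; one replicate is shown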
# Numbers without * were called inactive; ? = inconclusive; [ ] = dose if it differs, or a comment. Not all compounds are listed; the hit share may differ from the screen's.
no.	compound	HIV Env fusion	UUG fidelity
1	C[C@H]1CN([C@@H](C)CO)C(=O)Cc2cc(NS(=O)(=O)c3cn(C)cn3)ccc2O[C@H]1CN(C)C(=O)Nc1ccc2c(c1)OCO2	-10[16.7 µM]	1
2	C[C@H]1CN([C@@H](C)CO)C(=O)Cc2cc(NC(=O)Nc3ccc4c(c3)OCO4)ccc2O[C@@H]1CN(C)Cc1ccc(Cl)c(Cl)c1	17[16.7 µM]	-6
3	COc1ccc(S(=O)(=O)N2C[C@H](O)COC[C@@H]3O[C@H](CC(=O)NCc4ccc(Cl)c(Cl)c4)CC[C@H]32)cc1	5[16.7 µM]	15
4	C[C@@H]1CCCCO[C@H](CN(C)C(=O)Nc2ccc3c(c2)OCO3)[C@H](C)CN([C@@H](C)CO)C(=O)c2cc(NS(=O)(=O)c3cccs3)ccc2O1	-16[16.7 µM]	1
5	C[C@H](CO)N1C[C@H](C)[C@H](CN(C)Cc2cncnc2)Oc2ncc(C#C[C@@H](C)O)cc2C1=O	?	1
6	Cc1ccc(S(=O)(=O)Nc2ccc3c(c2)C(=O)N([C@H](C)CO)C[C@@H](C)[C@H](CN(C)S(=O)(=O)c2cn(C)cn2)O3)cc1	4[16.7 µM]	-4
7	C[C@H](CO)N1C[C@H](C)[C@H](CN(C)S(C)(=O)=O)Oc2cc(-c3ccc(F)cc3)ccc2S1(=O)=O	25[16.7 µM]	13
8	C[C@@H]1CN([C@H](C)CO)C(=O)c2cc(-c3ccncc3)cnc2O[C@H]1CN(C)C(=O)NC1CCCC1	-4[16.7 µM]	-6
9	O=C(C[C@H]1C[C@@H]2c3cc(NC(=O)c4ccc5c(c4)OCO5)ccc3O[C@@H]2[C@@H](CO)O1)NCc1cccc(F)c1	17[16.7 µM]	12
10	CCCNC(=O)N(C)C[C@@H]1Oc2cc(C#CCOC)ccc2S(=O)(=O)N([C@H](C)CO)C[C@@H]1C	-1[16.7 µM]	19
11	CCC(=O)N(C)C[C@H]1Oc2cc(/C=C/c3ccccc3)ccc2S(=O)(=O)N([C@H](C)CO)C[C@@H]1C	25[16.7 µM]	9
12	C[C@@H]1CN([C@@H](C)CO)C(=O)c2cc(NC(=O)CCCN(C)C)ccc2O[C@@H](C)CCCCO[C@H]1CN(C)S(=O)(=O)c1cccs1	-21[16.7 µM]	2
13	CNC[C@H]1Oc2ccc(NC(=O)CCC(F)(F)F)cc2CC(=O)N([C@@H](C)CO)C[C@H]1C	-5[16.7 µM]	1
14	C[C@@H]1CCCCO[C@H](CN(C)C(=O)Nc2ccccc2)[C@@H](C)CN([C@@H](C)CO)C(=O)c2cc(NS(C)(=O)=O)ccc2O1	-9[16.7 µM]	-11
15	CCCC(=O)Nc1ccc2c(c1)OC[C@@H](C)N(CC1CCCC1)C[C@@H](C)[C@@H](OC)CN(C)C2=O	-21[16.7 µM]	-10
16	COc1ccc(NC(=O)Nc2ccc3c(c2)C(=O)N([C@@H](C)CO)C[C@@H](C)[C@@H](CN(C)S(=O)(=O)c2ccc(F)cc2)OCCCC[C@@H](C)O3)cc1	-1[16.7 µM]	-13
17	COCC(=O)N(C)C[C@@H]1Oc2ncc(-c3ccc(F)cc3)cc2C(=O)N([C@H](C)CO)C[C@@H]1C	11[16.7 µM]	-9
18	Cc1noc(C)c1NC(=O)N(C)C[C@H]1OCCCC[C@@H](C)Oc2ccc(NC(=O)Nc3ccc4c(c3)OCO4)cc2C(=O)N([C@@H](C)CO)C[C@H]1C	-14[16.7 µM]	-17
19	COc1ccc(S(=O)(=O)N(C)C[C@@H]2Oc3ccc(NC(=O)C4CC4)cc3CC(=O)N([C@H](C)CO)C[C@H]2C)cc1	-7[16.7 µM]	25
20	C[C@H](CO)N1C[C@H](C)[C@@H](CN(C)S(=O)(=O)c2cccs2)OCCCC[C@H](C)Oc2ccc(NS(C)(=O)=O)cc2C1=O	-82[16.7 µM]	-3
21	C[C@H](CO)N1C[C@H](C)[C@@H](CN(C)Cc2ccccc2)Oc2ccc(NC(=O)Nc3ccc(C(F)(F)F)cc3)cc2C1=O	17[16.7 µM]	4
22	COc1ccc(S(=O)(=O)Nc2ccc3c(c2)C(=O)N([C@@H](C)CO)C[C@H](C)[C@H](CN(C)S(=O)(=O)c2cccs2)OCCCC[C@@H](C)O3)cc1	16[16.7 µM]	-5
23	CCC(=O)Nc1ccc2c(c1)OC[C@@H](C)N(C(=O)c1ccccc1F)C[C@@H](C)[C@@H](OC)CN(C)C2=O	-15[16.7 µM]	14
24	C[C@@H]1CN([C@H](C)CO)C(=O)c2cccc(NC(=O)C3CC3)c2O[C@H]1CN(C)C(=O)Nc1ccc(C(F)(F)F)cc1	-124[16.7 µM]	8
25	Cc1noc(C)c1NC(=O)N(C)C[C@@H]1Oc2ccc(NC(=O)Nc3cccc4ccccc34)cc2C(=O)N([C@H](C)CO)C[C@H]1C	19[16.7 µM]	-4
26	O=C(N[C@H]1CC[C@H](CCNS(=O)(=O)c2ccc(F)cc2)O[C@H]1CO)C1CCCC1	2[16.7 µM]	7
27	C[C@@H]1CCCCO[C@@H](CN(C)C)[C@@H](C)CN([C@H](C)CO)C(=O)c2cc(NC(=O)Nc3ccc(C(F)(F)F)cc3)ccc2O1	11[16.7 µM]	21
28	C[C@@H]1CN([C@@H](C)CO)C(=O)c2cc(NS(=O)(=O)c3ccccc3)ccc2O[C@@H]1CN(C)Cc1ccc(-c2ccccc2)cc1	6[16.7 µM]	2
29	COCC(=O)N(C)C[C@H]1Oc2ncc(C#C[C@H](C)O)cc2C(=O)N([C@@H](C)CO)C[C@@H]1C	-12[16.7 µM]	-6
30	C[C@H](CO)N1C[C@H](C)[C@@H](CN(C)Cc2ccc3c(c2)OCO3)Oc2ccc(NC(=O)Nc3ccc(C(F)(F)F)cc3)cc2CC1=O	42[16.7 µM]	13
31	C[C@@H]1CN([C@@H](C)CO)C(=O)c2cc(NC(=O)c3ccncc3)ccc2O[C@@H](C)CCCCO[C@H]1CN(C)C(=O)CCC(F)(F)F	-12[16.7 µM]	-3
32	C[C@H](CO)N1C[C@H](C)[C@@H](CN(C)Cc2ccc(C(F)(F)F)cc2)Oc2c(NS(=O)(=O)c3ccc(F)cc3)cccc2C1=O	22[16.7 µM]	2
33	CCC(=O)Nc1ccc2c(c1)C(=O)N(C)C[C@H](OC)[C@H](C)CN(CCc1ccccc1)[C@H](C)CO2	3[16.7 µM]	-6
34	C[C@@H]1CCCCO[C@@H](CN(C)C(=O)Nc2ccc3c(c2)OCO3)[C@@H](C)CN([C@H](C)CO)C(=O)c2cc(NC(=O)c3ccccc3)ccc2O1	-2[16.7 µM]	1
35	CCCC(O)C#Cc1cnc2c(c1)C(=O)N([C@H](C)CO)C[C@H](C)[C@H](CN(C)C(=O)Nc1cccc3ccccc13)O2 (some centres not stated)	15[16.7 µM]	32
36	C[C@H](CO)N1C[C@H](C)[C@H](CN(C)Cc2ccccc2)Oc2ccc(NC(=O)C3CCCCC3)cc2C1=O	6[16.7 µM]	2
37	C[C@@H]1CN([C@@H](C)CO)S(=O)(=O)c2ccc(C#CC3CC3)cc2O[C@@H]1CN(C)C(=O)C1CCC1	25[16.7 µM]	-5
38	O=C(CC1CC1)Nc1ccc2c(c1)[C@H]1C[C@@H](CC(=O)NC3CCCC3)O[C@@H](CO)[C@H]1O2	5[16.7 µM]	-3
39	C[C@@H]1CCCCO[C@H](CN(C)C)[C@H](C)CN([C@@H](C)CO)C(=O)c2cc(NS(=O)(=O)c3ccc(F)cc3)ccc2O1	-10[16.7 µM]	13
40	C[C@@H]1CN([C@H](C)CO)C(=O)Cc2cc(NC(=O)Nc3ccc(C(F)(F)F)cc3)ccc2O[C@H]1CN(C)C(=O)Nc1ccc(C(F)(F)F)cc1	13[16.7 µM]	-25
41	C[C@H](CO)N1C[C@H](C)[C@H](CN(C)C(=O)Nc2cccc3ccccc23)Oc2ccc(NC(=O)C3CC3)cc2C1=O	5[16.7 µM]	-4
42	O=C(C[C@H]1C=C[C@H](NC(=O)C2CCOCC2)[C@H](CO)O1)NCc1ccncc1	4[16.7 µM]	-15
43	COc1ccc(NC(=O)Nc2ccc3c(c2)[C@H]2C[C@@H](CC(=O)N4CCc5ccccc5C4)O[C@@H](CO)[C@H]2O3)cc1	1[16.7 µM]	-21
44	C[C@@H]1CN([C@@H](C)CO)C(=O)c2cccc(NC(=O)C3CCCCC3)c2O[C@@H]1CN(C)S(=O)(=O)c1ccc(Cl)cc1	-16[16.7 µM]	0
45	C[C@H](CO)N1C[C@H](C)[C@@H](CN(C)C(=O)c2ccccn2)Oc2cc(C3=CCCC3)ccc2S1(=O)=O	1[16.7 µM]	-5
46	Cc1noc(C)c1S(=O)(=O)N(C)C[C@@H]1Oc2ccc(NC(=O)C3CC3)cc2CC(=O)N([C@H](C)CO)C[C@H]1C	-4[16.7 µM]	-18
47	C[C@@H]1CN([C@H](C)CO)C(=O)c2cc(NS(=O)(=O)c3ccccc3)ccc2O[C@@H](C)CCCCO[C@H]1CN(C)Cc1ccc(C(=O)O)cc1	-1[16.7 µM]	2
48	C/C=C/c1cnc2c(c1)C(=O)N([C@H](C)CO)C[C@@H](C)[C@@H](CN(C)C(=O)Nc1c(C)noc1C)O2	4[16.7 µM]	-2
49	O=C(C[C@@H]1CC[C@H](NC(=O)Nc2ccc(F)cc2)[C@H](CO)O1)NCCN1CCCC1	6[16.7 µM]	-23
50	CC(C)C#Cc1ccc([C@@H]2[C@H](C#N)N(C(=O)c3ccccn3)[C@H]2CO)cc1	-11[16.7 µM]	14
51	C[C@H]1CN([C@@H](C)CO)C(=O)c2cc(NC(=O)NC3CCCCC3)ccc2O[C@H]1CN(C)Cc1ccc(-c2ccccc2)cc1	9[16.7 µM]	8
52	CN(C)C(=O)C[C@@H]1C=C[C@H](NC(=O)C2CCC2)[C@H](CO)O1	1[16.7 µM]	0
53	CCCNC(=O)N1C[C@H](O)COC[C@@H]2O[C@@H](CC(=O)N[C@H]3CCN(Cc4ccccc4)C3)CC[C@H]21	-14[16.7 µM]	-8
54	Cc1noc(C)c1S(=O)(=O)Nc1ccc2c(c1)C(=O)N([C@@H](C)CO)C[C@H](C)[C@@H](CN(C)Cc1ccncc1)OCCCC[C@@H](C)O2	-3[16.7 µM]	-3
55	CCNC(=O)C[C@H]1CC[C@@H]2[C@@H](COc3ccc(NC(=O)Nc4ccc(Cl)cc4)cc3C(=O)N2C)O1	21[16.7 µM]	12
56	C[C@H](CO)N1C[C@H](C)[C@@H](CN(C)C(=O)Nc2ccc(F)cc2)Oc2ccc(NC(=O)C3CCCCC3)cc2CC1=O	5[16.7 µM]	7
57	C[C@H]1CN([C@@H](C)CO)S(=O)(=O)c2ccc(-c3ccccc3)cc2O[C@@H]1CN(C)C(=O)Nc1ccccc1F	-8[16.7 µM]	23
58	COc1ccc(S(=O)(=O)N[C@H]2CC[C@H](CCn3cc(-c4ccccc4F)nn3)O[C@H]2CO)cc1	0[16.7 µM]	-19
59	N#C[C@@H]1[C@H](c2ccc(C#CC3(O)CCCC3)cc2)[C@H](CO)N1C(=O)C1CCC1	12[16.7 µM]	11
60	C[C@H]1CN([C@@H](C)CO)C(=O)c2cc(C3=CCCCC3)cnc2O[C@H]1CN(C)Cc1ccccc1	9[16.7 µM]	-12

# Reprinted at random: 5 compounds from above
no.	compound	HIV Env fusion	UUG fidelity
39	C[C@@H]1CCCCO[C@H](CN(C)C)[C@H](C)CN([C@@H](C)CO)C(=O)c2cc(NS(=O)(=O)c3ccc(F)cc3)ccc2O1	-10[16.7 µM]	13
7	C[C@H](CO)N1C[C@H](C)[C@H](CN(C)S(C)(=O)=O)Oc2cc(-c3ccc(F)cc3)ccc2S1(=O)=O	25[16.7 µM]	13
41	C[C@H](CO)N1C[C@H](C)[C@H](CN(C)C(=O)Nc2cccc3ccccc23)Oc2ccc(NC(=O)C3CC3)cc2C1=O	5[16.7 µM]	-4
4	C[C@@H]1CCCCO[C@H](CN(C)C(=O)Nc2ccc3c(c2)OCO3)[C@H](C)CN([C@@H](C)CO)C(=O)c2cc(NS(=O)(=O)c3cccs3)ccc2O1	-16[16.7 µM]	1
44	C[C@@H]1CN([C@@H](C)CO)C(=O)c2cccc(NC(=O)C3CCCCC3)c2O[C@@H]1CN(C)S(=O)(=O)c1ccc(Cl)cc1	-16[16.7 µM]	0

# The listing continues.
no.	compound	HIV Env fusion	UUG fidelity
61	C[C@H](CO)N1C[C@H](C)[C@@H](CN(C)C)Oc2cc(-c3cncnc3)ccc2S1(=O)=O	-13[16.7 µM]	-2
62	Cc1ccc(S(=O)(=O)Nc2ccc3c(c2)C(=O)N([C@H](C)CO)C[C@H](C)[C@@H](CN(C)C(=O)NC(C)C)OCCCC[C@H](C)O3)cc1	-269[16.7 µM]	14
63	C[C@H](CO)N1C[C@H](C)[C@H](CN(C)S(=O)(=O)c2ccc(F)cc2)Oc2ncccc2C1=O	-12[16.7 µM]	-16
64	CNC(=O)C[C@@H]1CC[C@H]2[C@@H](COc3ccc(NC(=O)NC4CCCC4)cc3C(=O)N2C)O1	-13[16.7 µM]	-7
65	CN1C(=O)c2cc(NC(=O)Nc3ccccc3Cl)ccc2OC[C@@H]2O[C@H](CC(=O)O)CC[C@@H]21	-8[16.7 µM]	-3
66	Cc1ccc(S(=O)(=O)N(C)C[C@@H]2Oc3ncc(-c4cc5ccccc5o4)cc3C(=O)N([C@H](C)CO)C[C@@H]2C)cc1	73*[16.7 µM]	10

# Compound profiles, from the list above. Screens in order: HIV Env fusion	UUG fidelity
# Shown for `Cc1ccc(S(=O)(=O)N(C)C[C@@H]2Oc3ncc(-c4cc5ccccc5o4)cc3C(=O)N([C@H](C)CO)C[C@@H]2C)cc1` = 73*[16.7 µM]	10
# Shown for `C[C@H](CO)N1C[C@H](C)[C@H](CN(C)S(=O)(=O)c2ccc(F)cc2)Oc2ncccc2C1=O` = -12[16.7 µM]	-16
